# CapD inh – inhibitors of Bacillus anthracis CapD enzyme; purified CapD enzyme, fluorescence intensity read-out; active compounds read low; some hits fall short of the stated cut; z-score (no concentration beside the values); actives 0.23% (n = 140,000); AID 492967;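 active means z-score under -4 in either of two replicates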;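 further: stock transfer was 100 nL into about 40 µL; score is relative to mean and spread of the plate; one replicate is shown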
# AID504770 – growth inhibitors of E. coli YBA685 in a screen for V. cholerae RctB (chromosome II replication) inhibitors; E. coli YBA685 rctB-dependent plasmid, OD600 growth, 3 h; active compounds read low; z-score (test concentration not listed); actives 0.27% (n = 130,000); AID 504770;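 active means z-score under -2 on both plates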;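 further: wells of about 30 µL received 100 nL stock; score is relative to mean and SD of the test wells; the first replicate is given; strong numbers were not always called active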
# Starred values were filed as active, the others as inactive; . = no result given; & = joins results of further samples. An unsorted share of the library. Share with any hit: about 0.41%.
canonical_smiles | CapD inh | AID504770
CNC(=O)C1c2ccccc2Oc2ccccc21 | . | 0.85
OCCNc1nc2ccccc2s1 | . | -0.45
Cc1cccc(C)c1NC(=O)CSc1nc2cc(S(C)(=O)=O)ccc2n1C(C)C | -0.34 | .
Nc1sc2c(c1C(=O)NCc1ccco1)CCCC2 | . | -0.5
CC(/C=C1\SC(=S)N(CC(=O)N2CCN(c3ccccc3)CC2)C1=O)=C\c1ccccc1 | -0.6 | -0.45
Cc1c2c(=O)n(-c3ccccc3)[nH]c2cc(=O)n1Cc1ccccc1 | -1.1 | 0.45
O=C(CN1CC(c2ccccc2)CC1=O)NCCc1ccccc1 (stereo not drawn) | 0.38 | -0.75
Cc1cc(C(=O)NN)nn1C | 10 | -0.2
CC(C)CCNC(=O)c1cccc2c1SCCC2=O | -1.5 | -0.75
CCOc1cc(/C=N/O)ccc1OCc1cccc(F)c1 | 0 | -1.1
CCc1ccc(NC(=O)NC(C)(C)C)cc1 | 0.46 | -0.35
O=C(O)C1CC=CCC1C(=O)N1CC=C(c2ccccc2)CC1 (stereo not drawn) | 2 | -0.25
Clc1ccccc1/C=N/c1c(-c2ccco2)nc2ccccn12 | -0.35 | 2.2
CCc1nc(NCCc2ccccc2)c(C#N)c2c1CCCC2 | 64 | -0.4
CCOC(=O)C1=C(C)N=c2s/c(=C\c3cc([N+](=O)[O-])ccc3N3CCOCC3)c(=O)n2C1c1ccc(OCC)cc1 (stereo not drawn) | -0.4 | .
Cc1ccc(C(=O)COC(=O)C2CCC2)cc1 | . | 0.3
CCCCN1C(=O)C(O)(c2nnc(-c3ccccc3)o2)c2ccccc21 (stereo not drawn) | . | -0.2
CCCc1cc2c(cc1N)OCO2 | . | 0.1
COC(=O)c1cc(-c2ccc(Cl)c(Cl)c2)n(-c2cccc(Cl)c2)n1 | 0.39 | .
CC(C(=O)NC1CCCC1)n1c2ccccc2c2cnn(C)c(=O)c21 (stereo not drawn) | -0.63 | -0.1
O=[N+]([O-])c1ccc(-c2ccc(-c3nc4cc(Cc5ccc6nc(-c7ccccc7)c(-c7ccc(-c8ccc([N+](=O)[O-])cc8)cc7)nc6c5)ccc4nc3-c3ccccc3)cc2)cc1 | -0.9 | .
Cc1cc(C)nc(SCC(=O)OCN2C(=O)c3ccccc3C2=O)n1 | . | -0.65
COc1ccc(SCc2nc3ccccc3o2)cc1 | . | -0.7
CC1CN(S(=O)(=O)c2cc(C(=O)N(C)Cc3cccs3)ccc2Cl)CC(C)O1 (stereo not drawn) | . | 1.8
NCc1ccccc1-n1ccnc1 | . | 0.75
OCc1cn(-c2ccccc2)nc1-c1cccnc1 | 0.13 | -0.05
O=C1CCc2cc(S(=O)(=O)Nc3ccccc3)cc3c2N1CCC3 | . | 0.2
Oc1ccc(C=NCc2ccco2)c(O)c1Cc1c(F)cccc1Cl | -0.6 | .
C=C(C)CSc1nc2ccc(Br)cc2c(=O)n1CC(C)O (stereo not drawn) | . | -0.65
NS(=O)(=O)c1ccc(CCn2c(=S)[nH]c3ccccc3c2=O)cc1 | . | -0.35

# Of the compounds above, these have a carbonyl joined to an NH by a bond outside any ring:
canonical_smiles | CapD inh | AID504770
CNC(=O)C1c2ccccc2Oc2ccccc21 | . | 0.85
Cc1cccc(C)c1NC(=O)CSc1nc2cc(S(C)(=O)=O)ccc2n1C(C)C | -0.34 | .
Nc1sc2c(c1C(=O)NCc1ccco1)CCCC2 | . | -0.5
O=C(CN1CC(c2ccccc2)CC1=O)NCCc1ccccc1 (stereo not drawn) | 0.38 | -0.75
Cc1cc(C(=O)NN)nn1C | 10 | -0.2
CC(C)CCNC(=O)c1cccc2c1SCCC2=O | -1.5 | -0.75
CCc1ccc(NC(=O)NC(C)(C)C)cc1 | 0.46 | -0.35
CC(C(=O)NC1CCCC1)n1c2ccccc2c2cnn(C)c(=O)c21 (stereo not drawn) | -0.63 | -0.1

# Next part:
canonical_smiles | CapD inh | AID504770
CCCCNC(=O)c1cc(=O)[nH]c2ccccc12 | . | 0.15
COc1ccc(-c2noc(CN(C(=O)Nc3cccc(C)c3)C(C)C)n2)cc1 | -1.4 | 0.1
CCNC(=S)Nc1c(C)n(C)n(-c2ccccc2)c1=O | -0.98 | 2.4
C/C(=C\c1nsc(Nc2ccccc2)n1)NCc1ccccc1 | -0.29 | 1.5
CCOC(=O)CSc1nnc(CNC(=O)c2cccs2)n1Cc1ccccc1 | -0.56 | -0.15
CC(=O)N/N=C/c1cn(-c2ccccc2)nc1-c1cccs1 | . | 0.15
O=C(Nc1ccc(NC(=O)C2CCCCC2)nc1)C1CC1 | . | 0.05
CC1=C(C(=O)Nc2nc3ccc(Br)cc3s2)C(c2cccnc2)C2=C(CC(C)(C)CC2=O)N1 (stereo not drawn) | 10 | .
O=C(Cn1nnc(-c2cccc(C(F)(F)F)c2)n1)N(C1CCCC1)C1CCS(=O)(=O)C1 (stereo not drawn) | . | 0.8
COc1cc2ccc(=O)oc2c(OC(C)=O)c1OC(C)=O | 6 | -0.35
COC(=O)c1ccc(C(=O)Nc2ccc3nc(-c4ccccn4)[nH]c3c2)cc1 | 0.035 | 0.4
CCOC(=O)C1=C(C)N=c2s/c(=C\c3ccc(SC)cc3)c(=O)n2C1c1cc(OC)ccc1OC (stereo not drawn) | -0.23 | .
CN1CCN(c2nc(Nc3cccc(C(F)(F)F)c3)nc(N3CCOCC3)n2)CC1 | -0.29 | .
CC1=C(C(=O)Nc2ccccc2Cl)C(c2ccc(Cl)cc2)NC(=O)N1 (stereo not drawn) | 0.47 | .
CC(C)(C)NCC(O)c1ccc(O)c(CO)c1 (stereo not drawn) | -0.14&-0.3 | 0.3
Cc1c(C(=O)N2CCN(S(=O)(=O)/C=C/c3ccccc3)CC2)oc2ccc(Cl)cc12 | . | 0.05
N#CC1=C(N)Oc2c(c(=O)oc3ccccc23)C1c1cc(Br)ccc1F (stereo not drawn) | 0.02 | .
CN(Cc1ccccc1)C(=O)Cc1ccccc1 | 0.22 | -0.4
O=C(N/N=C/c1cccnc1)c1ccccc1 | 0.12 | 1
O=C1CSC(=O)N1CCN1C(=O)S/C(=C\c2ccccc2O)C1=O | -0.68 | 2.5
Cc1c(F)cccc1NS(=O)(=O)c1cc2c3c(c1)c(C)cc(=O)n3CCC2 | . | 0.9
CCOC(=O)c1sc(NC(=O)CSc2nnc(CNC(=O)c3ccc(OC)cc3)n2C)c(C(=O)OCC)c1C | -0.31 | .
CC(c1ccco1)N(C(=O)c1cccc(S(=O)(=O)N(C)C)c1)c1ccccn1 (stereo not drawn) | . | 0.3
COc1ccc(-c2nn(-c3ccccc3)cc2CSC(=N)N)cc1OC | . | 0.1
COC(=O)c1ccccc1NC(=O)c1cc[n+]([O-])cc1 | . | 0.65
CCOC(=O)c1sc2nc(SCC(=O)NCc3ccccc3)n(Cc3cccs3)c(=O)c2c1C | 0.66 | .
O=C(Nc1ccccc1)c1cccnc1NCCc1ccccc1 | 20 | -0.4
CCn1c(SC/C(O)=C(\C#N)C(=O)NCc2ccccc2)nnc1-c1cccs1 | . | 0.1
N#CCC(=O)c1cccs1 | -0.82 | .
Cc1cc(NCc2ccccc2)nc(NCc2ccccc2)n1 | 0.2 | -1.3
Cc1ccc(S(=O)(=O)Nc2cccc(C(=O)N3CCCCC3)c2)cc1 | . | -0.75
O=C(O)CCCCc1nc2ccccc2s1 | 0.035 | -0.8
COC(=O)c1sccc1NC=C(C#N)C#N | -0.42 | 1.1
O=S1(=O)CCN(C(CCO)c2cccc(C(F)(F)F)c2)CC1 (stereo not drawn) | -0.35 | -0.65
O=C(O)c1ccc(N2C(=O)/C(=C/c3ccc([N+](=O)[O-])cc3)C=C2c2ccccc2)cc1 | -0.55 | .
O=C(Cn1ncc2c1-c1ccccc1OC2)NCc1cccnc1 | -1.1 | -1.1
Cc1ccccc1CSc1ncccc1C(=O)O | -0.54 | .
CC1CN(C(=O)NC23CC4CC(CC(C4)C2)C3)c2cc(Cl)ccc2O1 (stereo not drawn) | 11 | 0.2
N#Cc1cccc(NC(=O)CN2CCc3ccccc32)c1 | . | -0.05
COc1ccc(SS(=O)(=O)c2ccc(OC)c(NC(C)=O)c2)cc1NC(C)=O | . | -0.5
COC(=O)/C=c1\sc2ncnn2c1=O | -0.15 | -0.15
CCc1ccc(NS(=O)(=O)c2ccc3[nH]cc(C(=O)N(CC)CC)c(=O)c3c2)cc1 | -0.21 | 2.2
Clc1ccc(-c2nc(N3CCN(Cc4ccc5c(c4)OCO5)CC3)c3ccccc3n2)cc1 | 0.4 | 0.45
CCn1c2ccccc2c2cc(CN3CCC(NC(=O)OCc4cc(Br)ccc4OC)C3)ccc21 (stereo not drawn) | 14 | .
O=c1nc2ccccc2c2n1CC(CN1CCN(c3ccccc3F)CC1)N2 (stereo not drawn) | 0.07 | .
CC(=O)N1c2c(ccc3ccccc23)C(C)=CC1(C)C | 0.05 | -0.45
C=CC[C@@H]1Cc2ccccc2[C@H](CC=C)N1 | . | 1.2
O=C(COc1ccccc1)N1CCN(Cc2ccc(Br)cc2)CC1 | . | -0.55
CC(C)Cn1c(=O)c(C#N)cc2c(=O)n3ccccc3nc21 | -0.63 | 0.25
COc1ccc(C(=O)CN2Cc3ccccc3C2=N)cc1OC | 0.74 | -0.45

# (listing goes on)
canonical_smiles | CapD inh | AID504770
Cc1cccc(C)c1NC1=NCCCCC1 | . | 0.1
COP(=O)(OC)C(Nc1cccc2ccccc12)c1ccc([N+](=O)[O-])cc1 (stereo not drawn) | 52 | .
NC(=O)CCS(=O)(=O)c1ccc(Cl)cc1 | 0.91 | 1.2
Cc1cc(C)c(C(=O)O)c(CC(C)(C)C(=O)N2CCN(c3ncccc3C(F)(F)F)CC2)c1 | 0.15 | .
COc1ccc(OC)c(Nc2nc(-c3cccc(Cl)c3)c3c(n2)-c2ccccc2OC3)c1 | 0.82 | -0.15
CCOc1ccc(-n2c(N)c(C(=O)NCc3cccnc3)sc2=S)cc1 | -1.4 | 1.8
CC(C)(C)C(=O)NCC(c1ccco1)N1CCN(c2ccc(F)cc2)CC1 (stereo not drawn) | . | 0.4
COc1ccccc1NS(=O)(=O)c1ccc2oc(Nc3ccc(S(=O)(=O)N4CCCCC4)cc3)nc2c1 | . | -0.55
O=C1CC(CSc2nnnn2-c2ccccc2)=NN1c1ccccc1 | -0.49 | -1
COCCN1C(=O)/C(=C\c2ccc3c(c2)OCO3)SC1=S | -1.9 | 0.25
CCOCCn1cnc2sc(C(=O)N3CCC(C)CC3)c(C)c2c1=O | 6 | .
C[C@]12CC[C@H](O)C[C@H]1CC[C@@H]1[C@@H]2C[C@@H](O)[C@]2(C)[C@@H](C3=CC(=O)OC3)CC[C@]12O | 1.6 | .
CC(C)Cn1c(N2CCN(C(=O)c3sc4ccccc4c3Cl)CC2)nc2ccccc21 | . | 0.3
Cc1ccc(C)n1/N=C1\NC(=O)CS1 | . | -0.7
Cc1ccc(C(=O)N2CCCN(c3ccc(C(F)(F)F)cn3)CC2)cc1C | 2.5 | -0.35
COC(=O)c1ccc(CSc2ccc(Br)cc2)o1 | 0.19 | 0.8
Cc1ccccc1NC(=O)c1sc2nc3c(c(-c4ccco4)c2c1N)CCCC3 | -0.095 | .
Cc1cnc(C(=O)OCc2cc(Cl)c3c(c2)OCCO3)cn1 | . | -1.2
CC(=O)Nc1ccc(OC(=O)c2ccco2)cc1 | . | -0.75
C/C(=N\S(=O)(=O)c1ccc(C)cc1)Nc1ccc(O)c(C)c1 | -0.36 | 2
CN(Cc1ccc(C(F)(F)F)cc1)c1ccc(S(=O)(=O)N2CCCC2)cn1 | . | 0
O=C(CN(CC(=O)N1CCOCC1)S(=O)(=O)c1ccc2ccccc2c1)N1CCOCC1 | . | 1.3
COC(=O)c1ccc(C(=O)Nc2ccc3c(c2)nc(C)n3-c2ccccc2)cc1 | -0.46 | -0.1
Nc1cccc(-c2csnn2)c1 | . | -0.9
CC1CCCCN1CCCNC(=O)Cn1ncc2c3ccccc3n(Cc3ccc(F)cc3)c2c1=O (stereo not drawn) | 3.2 | 0.3
Cc1cc2cc(CNC(=O)c3ccco3)ccc2n1C | -0.66 | 0.45
CN1CCC(N(C(=O)Nc2ccc(F)cc2F)c2ccc3c(c2)CCN3S(C)(=O)=O)CC1 | -0.14 | .
CCCCn1c(CCC(=O)OCC(=O)Nc2ccc(OC)cc2)nc2cc(S(=O)(=O)N3CCOCC3)ccc21 | . | 0.4
COc1cccc(OCCSc2nc(C(C)C)cc(=O)[nH]2)c1 | . | -0.25
Cc1nnc(SCC(=O)Nc2sc3c(c2C(=O)OC(C)C)CCCC3)s1 | -0.46 | .
O=C(N/N=C/c1c[nH]c2cc(OCc3ccccc3)ccc12)c1ccc2ccccc2c1 | -0.85 | .
Cc1cc(C)n(-c2ccc(Sc3ccc(Cl)cc3)nn2)n1 | -0.3 | .
CCN(CC)c1ccc(C2C(C#N)=C(C)NC3=C2C(=O)CC(c2ccc(OC)cc2)C3)cc1 (stereo not drawn) | -0.01 | .
COC(=O)c1cc(/C=N/NC(N)=O)cn1C | 1.1 | 0.35
CC1(C)CC(=O)C2=C(C1)c1c(ccc3ncccc13)NC2C1CC=CCC1 (stereo not drawn) | -0.11 | 0.1
CCCCn1c(SCc2ccccc2)nc2ccsc2c1=O | -0.34 | -0.55
CC(C)C1CCC(C(=O)N[C@@H](Cc2ccccc2)C(=O)O)CC1 (stereo partly drawn) | . | 0.2
COc1ccc(C(=O)Cc2cnn(-c3ccccc3)c2)c(O)c1 | -0.55 | -0.65
CCCCN(C(=O)CC1CCCC1)c1c(N)n(Cc2ccccc2)c(=O)[nH]c1=O | . | -0.5

# Screening results (PubChem)
